# Assay outcomes deposited in PubChem BioAssay by National Center for Advancing Translational Sciences (NCATS).
# 2A Renilla = Primary qHTS Assay for Foot and Mouth Disease Virus Antivirals against NCGC Sytravon and CBC Compound Libraries: Renilla Luciferase Signal | actives 0.32% (n = 120,000) | Potency, µM (titrated, usually from 57.5 µM), for inactives: top-dose signal change, negative = less light | HEK cells with a luciferase reporter of 2A StopGo recoding; active means well fitted falling curve with a large enough effect; inconclusive means small, poorly fitted or top-dose-only effect; inactive means no such curve, though single readings can be large or run the other way; note: nearly all actives have a fitted effect of over 55% in size; overnight with compound
# 2A firefly = Primary qHTS Assay for Foot and Mouth Disease Virus Antivirals against NCGC Sytravon and CBC Compound Libraries: Firefly Luciferase Signal; Potency, µM (series often up to 57.5 µM), inactives show at the highest dose signal change, negative = less light; AID 1745856, 2022; actives 0.23% (n = 120,000); HEK cells with a luciferase reporter of 2A StopGo recoding; active = well fitted falling curve with a large enough effect; inconclusive = small, poorly fitted or top-dose-only effect; inactive = no such curve, though single readings can be large or run the other way; note: nearly all actives have a fitted effect of over 60% in size; overnight with compound
# * hit, by the source's call; ? = inconclusive; & = joins results of further samples; [ ] = remark or other dose. % is set by controls: 0 for no effect and ±100 for the full control effect; potency is the fitted concentration of half-maximal effect. Hits appear at their usual frequency, and some 0.53% of all compounds hit somewhere here.
# Every second line gives: 2A Renilla | 2A firefly
CCN(CC)CCCNC(=O)c1ccc2nc(N3CCCCC3)sc2c1
→ 5% | 18%
Cc1nc(-c2ccc(F)cc2)sc1CCNC(=O)C(=O)Nc1ccc2c(c1)OCCO2
→ -13% | -9%
CC(Sc1nc(Cl)nc2nc[nH]c12)C(=O)N1CCN(c2ccccc2)CC1 (stereo not given)
→ -7% | -14%
Cc1nc2cc(NC(=O)c3ccc(C(=O)c4ccccc4)cc3)ccc2o1
→ ? | ?
CCc1cc(C(=O)O)sc1-c1ccc(C)cc1
→ -4% | 15%
CC(NC(=O)CSc1nnnn1-c1ccc(O)cc1)c1ccc2c(c1)OCCO2 (stereo not given)
→ -8% | -7%
CN(CC12CC3CC(CC(C3)C1)C2)C(=O)CCc1ccccc1O
→ 30% | 0%
COc1cccc(N2CCN(C3=NS(=O)(=O)C(c4ccc(C)cc4)=C3C)CC2)c1
→ 4% | -14%
C#CCNC(=O)c1csc(-c2ccc(C)cc2)n1
→ 21% | 190%[activator]
O=C(CC1C=CCC1)NCc1cccs1 (stereo not given)
→ 12% | 0%
COc1cccc(-c2cc(C(=O)NC(C)(C)C)c3ccccc3n2)c1
→ 1% | 17%
COc1ccc(NC(=O)CN(C)C(=O)c2ccc(-c3ccc(Cl)cc3)o2)cc1
→ -13% | 56%[activator]
O=S1(=O)N=CN(Cc2cccc(Cl)c2)c2cc(C(F)(F)F)ccc21
→ 35%[activator] | -7%
CCC(CC)c1nn2c(=O)cc(COc3ccc(NC(=O)c4ccc(C)cc4)cc3)nc2s1
→ -2% | -4%
CCc1ccccc1NC(=O)Cn1nc(-c2cc(C)ccc2C)c2c(c1=O)CCCC2
→ -15% | -13%
O=C(O)/C=C/c1ccc(Br)s1
→ 9% | 17%
CC(C)(C)OC(=O)N1CCC(c2c(C(=O)NCc3ccco3)cnn2-c2ccccc2Cl)CC1
→ 14% | -17%
CC(C)(C)c1ccc(CNCCN2CCCC2)cc1
→ -18% | -19%
Cc1ccc(Nc2nc(Nc3ccc(F)cc3)nc3nccnc23)cc1Cl
→ 20% | 0%
CCOc1ccc(NC(=O)C2CCCN(c3nnc(C)c4c(C)n(-c5ccccc5)nc34)C2)cc1 (stereo not given)
→ 25% | 25%
O=C(CN1CCCC1c1ccc2c(c1)OCCCO2)Nc1c(F)cccc1F (stereo not given)
→ 4% | 5%
COc1ccc(Br)cc1CNCc1c(C(=O)O)c(C)n(Cc2ccccc2C)c1C
→ 31%[activator] | -12%
CCCCCCCNCc1sccc1C
→ -3% | -11%
CC(Cc1ccco1)NC(=O)CCc1nc(C(C)(C)C)no1 (stereo not given)
→ 6% | 16%
C=CCNC(=S)Nc1ccc(SC(F)F)cc1
→ ? | -26%
Cn1cc(C2c3ccccc3C(=O)N2CC(N)=O)c2ccccc21 (stereo not given)
→ ? | 1%
C=CCN(Cc1ccccc1F)C(=O)c1nn(CC)c(=O)c2ccccc12
→ 63%[activator] | -17%
O=C(O)C1(c2ccccc2)CC1c1ccccc1 (stereo not given)
→ 2% | -3%
CC(C)(C)C(=O)N1CCC(C(=O)N2CCC(c3nc4ccccc4o3)CC2)CC1
→ -30% | -25%
COCCCNC(=O)c1c(C)c(-c2ccc(C)cc2)nc2ccccc12
→ 3% | 6%
CCC(C)Nc1ncnc2c1cnn2-c1ccc(F)cc1 (stereo not given)
→ 4% | 168%[activator]
COc1ccc2[nH]c(C(=O)NCc3ccccc3)c(C)c2c1
→ 69%[activator] | 6%
COc1ccc(C(C)=O)c(OCc2ccc(C#N)cc2)c1
→ 15% | 15%
COC(=O)c1ccc(NS(=O)(=O)c2ccc3[nH]c4c(c3c2)CCCCC4)cc1
→ 309%[activator] | 16%
Cc1ccc(C)c(N2CCN(C(=O)C3CCN(Cc4nc(-c5cccc(Cl)c5)oc4C)CC3)CC2)c1
→ -11% | 1%
COCCn1c(CNC(=O)c2ccc(C)cc2)nc2cccnc21
→ -3% | 12%
CCOC(=O)CC(NC(=O)c1cc2ccccc2oc1=O)c1ccccc1Cl (stereo not given)
→ 12% | 33%
CCOc1ccc(/C=C/c2nc(C#N)c(NCc3ccc(OC)cc3)o2)cc1
→ 14%&20% | 0%&24%
CCCCn1c(=O)[nH]c(=O)c2c1nc(CCC(=O)Nc1cccc(C)c1C)n2CC(C)C
→ 35%[activator] | 18%
COc1cc2ccccc2cc1C(=O)Nc1ccccc1N1CCN(C(C)=O)CC1
→ 30%[activator] | 37%[activator]
CCOc1ccc(N2C(=O)c3c(C(=O)OC)ncn3CC2(C)C(=O)NC2CCCCCC2)cc1 (stereo not given)
→ 23% | 10%
CCOC(=O)CNCc1ccc(F)cc1
→ -8% | -4%
CCOC(=O)c1scc(-c2ccc(C)cc2)c1S(=O)(=O)Nc1cc(Cl)ccc1OC
→ 4% | -14%
COc1ccc(Cl)cc1Nc1ncnc2c1nc1n2CCCC1
→ 35%[activator] | 38%[activator]
CCOc1ccc(S(=O)(=O)N(CC(=O)NCCSCc2ccccc2)c2ccccc2)cc1
→ -19% | -31%
O=C(CCOc1ccccc1)N(Cc1cccnc1)c1nc2c(F)cc(F)cc2s1
→ -11% | 3%
Cc1ccc(-n2ncc3c(NC4CCCC4)ncnc32)cc1
→ 5%&-5% | -12%&-13%
CC(NC(=O)c1cc(-c2ccc(Cl)cc2)on1)c1ccccc1 (stereo not given)
→ -14% | 7%
COc1ccc(C)c2sc(N(Cc3cccnc3)C(=O)C3CCCCC3)nc12
→ 5% | -1%
N#Cc1ccccc1Sc1ccccc1C(=O)NC1CCCc2ccccc21 (stereo not given)
→ 25%[1.06 µM] | 4%
Cc1cc(C)c(C(=O)COC(=O)c2n[nH]c(=O)c3ccccc23)c(C)c1
→ -3% | 2%
CCCOc1ccc(C2C(=O)N(C3CCCCC3)CC(=O)N2CCc2ccccc2)cc1OC (stereo not given)
→ 13% | 5%
CCN(CC(O)COc1ccc(C(C)(C)c2ccccc2)cc1)C12CC3CC(CC(C3)C1)C2 (stereo not given)
→ -1% | -3%
Cc1cc2oc(=O)cc(CN3CCC(C(=O)N(C)C)CC3)c2cc1C(C)C
→ 4% | 0%
CC(C)c1ccc2[nH]c(C(C)(C)C)c(C=O)c2c1
→ 11% | 161%[activator]
Cc1ccc(C(=O)OC(C)C(=O)NC(=O)NC2CCCCC2)cc1O (stereo not given)
→ -24% | -13%
Cc1ccc(CSc2nc3cccnc3n2Cc2ccc(C(=O)NC3CC3)cc2)cc1
→ 4% | 107%[activator]
COc1ccc(S(=O)(=O)NC(c2ccc(F)cc2)c2cccs2)cc1NC(C)=O (stereo not given)
→ 88%[activator] | -3%
Fc1cccc(Cl)c1CSc1nnc([C@@H]2CCCN2)o1
→ 19% | 35%[activator]
Cc1ccc(C)c(CNC(=O)c2ccc3c(c2)nc2n3CCOC2)c1
→ 13% | 12%

# An excerpt from above in order of molecular weight, rising.
# Every second line gives: 2A Renilla | 2A firefly
Fc1cccc(Cl)c1CSc1nnc([C@@H]2CCCN2)o1
→ 19% | 35%[activator]
COc1ccc(Cl)cc1Nc1ncnc2c1nc1n2CCCC1
→ 35%[activator] | 38%[activator]
COc1cccc(N2CCN(C3=NS(=O)(=O)C(c4ccc(C)cc4)=C3C)CC2)c1
→ 4% | -14%

# Next part.
# Every second line gives: 2A Renilla | 2A firefly
CCc1ccc(NC(=O)CC2C(=O)N(c3ccccc3)C(=O)N2C(C)C)cc1 (stereo not given)
→ 3% | 48%[activator]
CCCCN(CC)C(=O)Cn1nc(C)c2c(C)n(-c3ccccc3)nc2c1=O
→ -8% | -16%
Cc1ccc(NC(=O)CN2C(=O)C(C)(C)c3cc(S(=O)(=O)N4CCCC4)ccc32)cc1
→ 126%[activator] | 0%
N#CCc1ccc(NC(=O)CCC(=O)c2ccc3c(c2)CCC3)cc1
→ 3% | 5%
Cc1cccc(CNC(=O)c2ccc(Cn3c(SCc4cccc(F)c4)nc4cccnc43)cc2)c1
→ 8% | -15%
CCOc1ccccc1NC(=O)CSc1nc2cc(OC)c(OC)cc2c2nc(-c3ccccc3)nn12
→ -17% | 0%
COC(=O)c1scc(-c2ccc(C)cc2)c1S(=O)(=O)Nc1cc(Cl)c(OC)cc1OC
→ 33%[activator] | -16%
COC(=O)c1ccccc1NC(=O)C1CCCN(C(=O)c2cnn(-c3ccc(F)cc3)c2-n2cccc2)C1 (stereo not given)
→ -9% | -11%
Cc1cc(C)c(NC(=O)CSc2nnc(-c3ccc(F)cc3)n2N)c(C)c1
→ -15% | 3%
CCNC(=O)CNC(=O)Cn1c(C)cc2ccccc21
→ 38%[activator] | 64%[activator]
CC(=O)c1c(C)[nH]c(C(=O)CSc2ccc(Br)cc2)c1C
→ -18% | 48%[activator]
Cc1ccc(C)c(N2CCN(C(=O)c3ccccc3NC(=O)Cn3c(C)cc(C)c(C#N)c3=O)CC2)c1
→ 11% | -8%
CCOC(=O)c1cc(-c2ccc(OC)cc2)n(CCC(=O)Nc2cccc(C(C)=O)c2)c1C
→ 27% | -17%
CCCOC(=O)c1nc2ccccc2nc1N1CCN(Cc2ccccc2)CC1
→ -13% | ?
COc1ccc(N2CCN(c3ncnc4c3cnn4-c3ccc(C)c(Cl)c3)CC2)cc1
→ -7% | -15%
CC(C)C(NC(=O)Cc1ccc2ccccc2c1)C(=O)O (stereo not given)
→ -2% | 10%
O=C(COc1ccc([N+](=O)[O-])cc1Cl)Nc1ccc2c(c1)CCC2
→ 12% | 90%[activator]
CC(C)NC(=O)c1nc(Cc2c[nH]c3ccccc23)no1
→ -6% | 11%
Cc1oc(-c2ccc(C(=O)NCc3cccnc3)cc2)nc1CS(=O)c1ccccc1 (stereo not given)
→ ? | ?
O=C(O)CCC(CNS(=O)(=O)c1ccc(Cl)cc1)C(F)(F)F (stereo not given)
→ -7%[1.06 µM] | -1%

# Exported field by field: entries from further up.
> Cc1cc(C)c(NC(=O)CSc2nnc(-c3ccc(F)cc3)n2N)c(C)c1
  2A Renilla: -15%
  2A firefly: 3%

> CCNC(=O)CNC(=O)Cn1c(C)cc2ccccc21
  2A Renilla: 38%[activator]
  2A firefly: 64%[activator]

> CC(=O)c1c(C)[nH]c(C(=O)CSc2ccc(Br)cc2)c1C
  2A Renilla: -18%
  2A firefly: 48%[activator]

# Next results:
# Every second line gives: 2A Renilla | 2A firefly
CCCc1cc(=O)[nH]c(Nc2ccc(C(=O)O)cc2)n1
→ 4% | 9%
CCC(C)(C)c1ccc(CC(C)CN2C[C@@H](C)O[C@@H](C)C2)cc1 (stereo not given in full)
→ -7% | -14%[11.5 µM]
O=C(NCCc1csc(-c2ccc(Cl)cc2)n1)c1cccs1
→ ? | ?
OCCNc1ncnc2c1cnn2-c1ccccc1Cl
→ -12% | 12%
Cc1ccc(Nc2c(-c3ccc(N4CCOCC4)cc3)nc3ccc(Cl)cn23)cc1
→ -8% | -6%
CCOC(=O)c1cc2cc(NC(=O)c3ccc4c(c3)NC(=O)CS4)ccc2s1
→ 18% | 0%
COc1ccc(CCNC(=O)Cn2c(=O)cc(C(F)(F)F)c3c(C)nn(C)c32)c(OC)c1
→ -14% | -24%
CC1=C(C(=O)Nc2ccccc2)C(c2ccccc2)NC(=S)N1 (stereo not given)
→ 20% | 23%
CCCCN(CC)C(=O)CSc1n[nH]c(=O)c2cc(-c3ccc(OC)c(OC)c3)nn12
→ 7% | 11%
Cc1c(Cl)cccc1NC(=O)CC(O)(c1nccn1C)C(F)(F)F (stereo not given)
→ 26% | -3%
COc1ccc(S(=O)(=O)N(CC(=O)Nc2cccc(C)c2)c2ccc(C)cc2)cc1OC
→ 35%[activator] | 1%
Fc1ccc(OCc2nnc3sc(COc4ccccc4)nn23)cc1
→ 9% | 34%[activator]
Cc1ccc(C2CC(=O)n3nc(-c4ccc(Cl)cc4)nc3S2)cc1 (stereo not given)
→ -12% | 0%
CCOC(=O)c1ccc(NC(=O)C2=C(C)C(=O)OC23CCCCCC3)cc1
→ -11% | -21%
CCC(Sc1nc2nccnc2c(=O)n1Cc1ccc(OC)cc1)C(=O)Nc1ccc(OC)cc1 (stereo not given)
→ 82%[activator] | -5%
Cc1ccc2nc(-c3cccc(NC(=O)c4ccc(C#N)cc4F)c3)oc2c1
→ 12% | 0%
Cc1ccc(S(=O)(=O)/C(C#N)=C/c2c(C)[nH]c3ccccc23)cc1
→ 155%[activator] | 0%
CC(NC(=O)c1cncc(Br)c1)C12CC3CC(CC(C3)C1)C2 (stereo not given)
→ 21% | 4%
COc1cc(C(=O)N2CCN(c3ccc(Nc4ccc(C)cc4)nn3)CC2)cc(OC)c1OC
→ -10% | -11%
Cc1cc(=O)oc2cc(OS(=O)(=O)c3cccc(OC(F)(F)F)c3)ccc12
→ 21% | 7%
COc1cc(OC)cc(C(=O)Oc2ccccc2Cl)c1
→ 10% | 4%
COC(=O)c1cccc(COc2cc(C(C)=O)ccc2NC(C)=O)c1
→ 30% | 111%[activator]
CCc1ccc(C(=O)N2CCN(c3nc4ccccc4o3)CC2)cc1
→ -8% | 1%
Cc1ccc(Cl)cc1NC(=O)CCNC(=O)CCC(=O)c1cccs1
→ -6% | 0%
COc1ccc(CCNC(=O)CCCn2c(=O)c3ccccc3n(Cc3ccc(C)cc3)c2=O)cc1OC
→ -2% | -17%
CCCCCNc1nc2c(-c3ccccc3)nnn2c2ccccc12
→ -15% | -25%
O=C(O)C1(c2ccccc2)CCOCC1
→ 7% | 4%
Cn1nnnc1SCCCNCc1cccc(OCc2ccc(Cl)cc2)c1
→ -3% | 0%
CCOC(=O)N1CCc2c(sc(NCc3cccc(F)c3)c2C(=O)Nc2ccc(OCC)cc2)C1
→ 1% | -11%
COc1ccc(S(=O)(=O)N2CCCCCC2)cc1NC(=O)Cc1n[nH]c(=O)c2ccccc12
→ 9% | -10%
Cc1ccc(CNC(=O)CCc2cn(C)c3ccccc23)cc1
→ 8% | -9%
